Screening results from PubChem BioAssay.
HPGD block: inhibitors of human 15-hydroxyprostaglandin dehydrogenase (HPGD) | AID 894 | purified HPGD, NADH fluorescence kinetic, PGE2 substrate | Potency, µM, without a hit: at the top dose activity change, negative = inhibition, most hits filed as inhibitors | 4.3% of 150,000 active; active = well fitted inhibition curve with a large enough effect (not every such curve was filed as active); inconclusive = small, poorly fitted or top-dose-only effect, or another doubt; inactive = no such curve, though single readings can be large or run the other way;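 further: top concentration of the series not given in the record; plate controls included wells without enzyme; inactives centre near -10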
Target sequence (P15428 whole entry, looked up): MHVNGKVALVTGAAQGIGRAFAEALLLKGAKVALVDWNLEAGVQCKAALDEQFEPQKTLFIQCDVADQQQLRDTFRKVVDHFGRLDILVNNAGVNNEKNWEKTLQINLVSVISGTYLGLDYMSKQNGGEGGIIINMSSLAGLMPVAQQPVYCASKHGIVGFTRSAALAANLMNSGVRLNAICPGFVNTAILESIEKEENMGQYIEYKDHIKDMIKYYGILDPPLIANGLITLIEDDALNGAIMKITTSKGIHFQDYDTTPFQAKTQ
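20 nM HPGD preincubated 15 min at room temperature with compound in 50 mM Tris-HCl pH 8, 0.01% Tween 20. Started with 1 mM NAD+ and 30 uM prostaglandin E2; NADH fluorescence (360/450 nm) read 5 times over 30-s intervals, last minus first.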
An asterisk follows results filed as active; ? = inconclusive; & = joins results of further samples. On the % scale 0 is the no-effect control and ±100 the full control effect; potency means the concentration at half of the fitted maximal effect.

| structure | HPGD block |
| --- | --- |
| COc1ccc(/C=C(/C#N)C(=O)Nc2cccnc2)cc1OC | -10.4% |
| Cc1nn(-c2ccccc2)c(N2CCCC2)c1/C=N/NC(=S)Nc1ccccc1C(F)(F)F | ? |
| CCn1c(COc2ccccc2C)nc2ccccc21 | -2.3% |
| CCCCCCCCCCCCCCCCCCNC(=O)OCC(COP(=O)([O-])OCC[n+]1ccsc1)OC (stereo unspecified) | -12.6% |
| O=C(CSc1nnc(NC(=O)c2ccc(S(=O)(=O)N3CCOCC3)cc2)s1)Nc1ccccc1C(F)(F)F | -19.3% |
| O=C(Nc1ccc2c(c1)OCCO2)c1cc2sccc2n1Cc1ccc(F)cc1 | -19.4% |
| Cn1c(-c2nonc2NC(=O)c2ccc(C(C)(C)C)cc2)nc2ccccc21 | -9.1% |
| O=[N+]([O-])c1ccc2c(c1)C(N1CCOCC1)/C(=C/COc1ccc(F)cc1)O2 (stereo unspecified) | -14.2% |
| Cc1cccc(NC(=S)NCc2ccc3[nH]c4c(c3c2)CCCC4)c1 | -10.7% |
| N/C(=N\OS(=O)(=O)c1ccccc1)c1cccnc1 | -1.9% |

Carrying on:
| structure | HPGD block |
| --- | --- |
| CCc1ccccc1NC(=O)CSc1nc2n[nH]c(C)c2c(=N)n1-c1cccc(OC)c1 | ? |
| O=C1c2ccccc2-c2nc3ccccc3nc21 | -20.0% |
| O=C(NC(=S)N1CCN(c2ccc(Cl)cc2[N+](=O)[O-])CC1)c1ccco1 | ? |
| O=C(COC(=O)CNC(=O)c1cccc([N+](=O)[O-])c1)Nc1nc2ccccc2s1 | 0.5% |
| COc1ccc(C(=O)CSc2nnc(C(CO)NC(=O)c3ccc(OC)cc3)n2C)cc1 (stereo unspecified) | -9.9% |
| CCCn1c(NCc2ccco2)nc2ccccc21 | -9.3% |
| O=C(CCc1ccccc1)Nc1nncs1 | -6.1% |
| O=C(NCc1ccc(F)cc1)c1c2c(nc3ccccc13)CCN(Cc1ccccc1)C2 | -0.1% |
| CCOC(=O)c1cnc2sc3c(n2c1=O)CCCC3 | ? |
| C=CCn1c(-c2csc3ccccc23)n[nH]c1=S | -16.6% |

Next part.
| structure | HPGD block |
| --- | --- |
| CCCn1c(=O)c(C(=O)NNS(=O)(=O)c2ccc(C)cc2)c(O)c2ccccc21 | -10.2% |
| CC1(C)Cc2ccccc2C(N/N=C/c2cccc(F)c2)=N1 | -12.9% |
| CCOC(=O)c1c(-c2ccccc2)csc1NC(=O)CSc1nc(N)cc(N)n1 | -3.9% |
| O=C(CCc1ccccc1)Nc1nc2n(n1)C(c1ccc(Cl)cc1)CC(=O)N2 (stereo unspecified) | -3.0% |
| CCOc1ccc(N2CC(C(=O)NCCc3ccc(OC)c(OC)c3)CC2=O)cc1 (stereo unspecified) | -7.6% |
| CCOCc1cc(C2NC(=O)NC(C)=C2C(=O)OCC)ccc1OC (stereo unspecified) | -15.8% |
| CCc1cccc(OCCCCN(CC)CC)c1 | 0.7% |
| CN(C)S(=O)(=O)Oc1cccc(C(=O)Nc2ccccc2Cl)c1 | -27.7% |
| N#Cc1ccc(CSc2nnc(NC(=O)C3CC(=O)N(c4ccc5c(c4)OCCO5)C3)s2)cc1 (stereo unspecified) | -5.8% |
| Cn1ncc([N+](=O)[O-])c1C(=O)Nc1ccc(-c2nc3ccccc3[nH]2)cc1 | -5.0% |

Going on with the list.
| structure | HPGD block |
| --- | --- |
| COc1cccc(C(=O)N(CN2CCCC2=O)c2cc(C)on2)c1 | -10.3% |
| COc1ccc(S(=O)(=O)Nc2ccc3c(c2)OCO3)cc1 | -14.8% |
| COc1ccc(-c2nn(C)c(=O)c3ccccc23)cc1NC(=O)Cn1nc(-c2ccccc2)c2ccccc2c1=O | ? |
| COc1ccc2c(c1)O[C@@H](c1ccc3c(c1)OCO3)[C@H](OC(=O)NCc1ccc3c(c1)OCO3)C2=O | -7.2% |
| O=c1[nH]c(/C(=N\O)c2ccccc2)no1 | ? |
| CC1=N/C(=C\c2ccc(OC(C)C)cc2)C(=O)N1c1ccc(C(=O)O)cc1 | 15.8µM* |
| COc1cc(C(=O)NCC(c2cccnc2)N2CCN(c3ccccc3)CC2)cc(OC)c1OC (stereo unspecified) | 3.7% |
| Cc1cc(S(=O)(=O)Nc2ccc3ccccc3c2)c(C)s1 | ? |
| CC(C)CCNC(=O)C1CCCN(S(=O)(=O)c2ccc(F)cc2)C1 (stereo unspecified) | -4.9% |
| CC(=O)Nc1ccc(Oc2cnc3ccccc3n2)cc1 | -21.5% |

Other entries
| structure | HPGD block |
| --- | --- |
| Cc1cccc(C)c1OCC(=O)Nn1c(C)nc2ccccc2c1=O | -7.4% |
| Cc1nn(Cc2ccccc2)c(C)c1NC(=O)c1cc(-c2ccc3c(c2)OCO3)on1 | -17.0% |
| CCOC(=O)c1cnn(-c2cc(Oc3cccc(C)c3)ncn2)c1N | -11.1% |
| Cc1cc(C)n2nc(SC3CCCCN(C(=O)c4ccc(F)cc4)C3=O)nc2n1 (stereo unspecified) | -6.6% |
| COC(=O)c1c(NC(=O)COC(=O)CCc2ccc(S(=O)(=O)N3CCOCC3)cc2)sc2c1CCC2 | ? |
| C=C(C)Cn1c(SCC)nc2ccccc2c1=O | 3.4% |
| Cn1cccc1C(=O)N1CCC2(CC1)CN(C(c1ccccc1)c1ccccc1)C2 | -16.4% |
| O=C(NCc1cccs1)C1CC(=O)N(c2ccc(F)cc2)C1 (stereo unspecified) | -8.8% |
| COC(=O)[C@@]1(Cc2ccc(F)cc2)[C@H]2c3cc(C(=O)N4CCCC4)n(CC4CC4)c3C[C@H]2CN1C(=O)c1ccccc1 | -10.5% |
| COc1ccc(N2CCN(C(=O)c3ccc(OCC4CCCO4)cc3)CC2)cc1 (stereo unspecified) | -6.9% |

(more compounds)
| structure | HPGD block |
| --- | --- |
| Cc1ccc(NC(=O)CCC(=O)NNC(=O)c2cccs2)cc1C | 2.5% |
| O=C(c1cccnc1)N1CCN(S(=O)(=O)c2ccc(S(=O)(=O)N3CCCC3)cc2)CC1 | 3.0% |
| COc1ccc(Cl)cc1S(=O)(=O)N1CCN(c2ccc(F)cc2)CC1 | -14.0% |
| O=C1OC(C(=O)Nc2nccs2)Cc2ccccc21 (stereo unspecified) | -14.8% |
| CCOC(=O)C1C(c2ccc(O)c(OC)c2)NC(=S)NC1(O)C(F)(F)F (stereo unspecified) | 1.9% |
| O=C1CC(=O)N(Cc2ccco2)C(=O)N1 | -2.4% |
| COc1cccc(-n2nnnc2S(C)(=O)=O)c1 | 20µM* |
| CC1CCN(S(=O)(=O)c2ccc3[nH]c(=O)c(=O)[nH]c3c2)CC1 | -10.9% |
| Cc1nc2ccc(NC(=O)Cc3ccsc3)cc2s1 | -14.3% |
| CC(NC(=O)Cc1ccc(-c2ccccc2)cc1)c1ccccc1 (stereo unspecified) | 14.1µM* |

More results:
| structure | HPGD block |
| --- | --- |
| Cn1cc(/C=C2\SC(=S)N(NC(=O)c3ccccc3Cl)C2=O)c2ccccc21 | -24.8% |
| Cc1[nH]nc2c1C(c1cccnc1)N(c1ccc(Br)cc1)C2=O (stereo unspecified) | -11.7% |
| Nc1nc(SCc2ccccc2)[nH]c(=O)c1-c1ccccc1 | -8.9% |
| CC1=C(C(=O)Nc2ccc(C)cc2C)C(c2ccc(Cl)cc2)n2nc(C(=O)OC(C)C)nc2N1 (stereo unspecified) | -18.4% |
| COc1ccccc1OCC(O)Cn1c(=N)n(Cc2ccccc2)c2ccccc21 (stereo unspecified) | -9.9% |
| O=c1cc(N2CCN(c3ccccc3F)CC2)[nH]c(=O)n1-c1ccc(Br)cc1 | -8.5% |
| COc1ccc(N(C(=O)C(C)C)S(=O)(=O)c2ccc(Cl)cc2)cc1 | -13.2% |
| O=C(NN1C(=O)C2C3c4ccccc4C(c4ccccc43)C2C1=O)c1ccccc1 (stereo unspecified) | -0.3% |
| COc1cccc([C@@H]2Oc3ccc(Br)cc3C(=O)[C@H]2OC(=O)N[C@H]2CCCc3ccccc32)c1 | -1.4% |
| O=C(CN(c1ccc2c(c1)OCCO2)S(=O)(=O)c1ccccc1)Nc1ccc2c(c1)OCO2 | -26.9% |

Continuation:
| structure | HPGD block |
| --- | --- |
| O=C(NNC(=O)c1ccc([N+](=O)[O-])cc1Cl)c1ccncc1 | -2.3% |
| CCn1c(SCC(=O)Nc2ccc3c(c2)OCO3)nc2c1c(=O)n(C)c(=O)n2C | -3.1% |
| CC1CC(C)CN(c2nc3c(c(=O)n(C)c(=O)n3C)n2C)C1 (stereo unspecified) | 1.8% |
| O=S(=O)(c1ccccc1)N1CCN(Cc2cccc(Cl)c2)CC1 | 4.0% |
| CCn1cc([N+](=O)[O-])c(C(=O)N2CCN(C(=O)c3ccco3)CC2)n1 | -16.0% |
| O=C(CSc1nnc(-c2ccccn2)n1Cc1ccccc1)Nc1ccc2c(c1)OCO2 | -7.2% |
| O=C(Nc1ccccc1C(=O)N1CCN(c2ccccc2)CC1)c1ccco1 | 5.9% |
| N=c1ccn2c(n1)O[C@@H]1[C@H](O)[C@H](CO)O[C@@H]12 | -1.1% |
| COC(=O)N(NC(=O)C(O)(c1ccccc1)c1ccccc1)c1ccc(C)cc1 | -1.6% |
| CN(/C=C/C(=O)C(F)(F)F)Cc1ccccc1 | -11.0% |

Continued.
| structure | HPGD block |
| --- | --- |
| NC(=S)N/N=C/c1coc2c(ccc3ccccc32)c1=O | -11.8% |
| COc1ccc(S(=O)(=O)NCCc2nnc3ccc(SCC(=O)Nc4nc(C)cs4)nn23)cc1 | -6.2% |
| O=C(Nc1ccon1)c1sc2cc(F)ccc2c1Cl | -18.4% |
| Cc1ccc(S(=O)(=O)NCC(=O)N2CCCC2)cc1 | -4.6% |
| CCOC(=O)c1sc(NC(=O)c2ccco2)nc1-c1ccccc1 | -12.2% |
| C/C=N/NC(=O)c1cc(Br)ccc1O | -16.6% |
| COc1cccc(CNC(=O)C2CCCN(S(=O)(=O)c3cnc[nH]3)C2)c1 (stereo unspecified) | -5.0% |
| CCOC(=O)c1oc2cc(O)c(CC)cc2c(=O)c1-c1ccc2c(c1)OCCO2 | -18.0% |
| O=C(c1ccccc1F)N1CCN(Cc2cccc(Cl)c2)CC1 | -0.9% |
| COc1cccc([C@@H]2Oc3ccc(OC)cc3C(=O)[C@H]2OC(=O)N[C@H](C)C2CCCCC2)c1 | -16.9%&-19.1% |

Going on with the list.
| structure | HPGD block |
| --- | --- |
| CCN(c1cccc(C)c1)S(=O)(=O)c1ccc(O)c(C(=O)O)c1 | ? |
| Cc1cc(C(=O)CSc2ncn[nH]2)c(C)n1-c1cccc(S(=O)(=O)N2CCOCC2)c1 | -12.1% |
| CC(C)CNC(=O)COc1cccc(C(=O)NCc2ccccc2)c1 | -16.3% |
| CC(C)CNC(=O)c1ccccc1NC(=O)c1ccc(CN2CCOCC2)cc1 | 0.0% |
| COCCn1c(-c2ccccc2)nc2oc3cc(OC)ccc3c(=O)c2c1=O | -5.8% |
| CC(=O)Nc1cccc(C)c1 | -9.4% |
| CCOc1cc(C2C(C(=O)OC)=C(C)N=C3SCCC(=O)N32)ccc1OC(C)=O (stereo unspecified) | -3.7% |
| CCOC(=O)N1CCN(C(=O)COc2ccc(Br)cc2Cl)CC1 | -15.6% |
| CCOC(=O)C(NC(=O)c1ccccc1)(OCc1ccccc1)C(F)(F)F (stereo unspecified) | -9.2% |
| CCc1nc2ccc(C)cc2c(C(=O)NC2CCCCC2C)c1C (stereo unspecified) | -5.5% |

(list continues)
| structure | HPGD block |
| --- | --- |
| O=c1[nH]ncc2c3ccccc3n(Cc3ccccc3)c12 | -12.5% |
| C=CCc1c(C)nn(CC(=O)O)c1-c1ccccc1 | -0.7% |
| CCc1nnc(NC(=O)CCN2C(=O)CCC2=O)s1 | -11.1% |
| O=C(CCN1CCCCC1)c1ccc2c(c1)OCO2 | ? |
| COCCn1c(C(=O)N2CCCC2)cc2c1C[C@H]1CN(C(=O)c3ccccc3)[C@@](Cc3ccc(OC)cc3)(C(=O)OC)[C@@H]21 | -15.2% |
| O=C(N[C@H](CO)[C@H](O)c1ccc([N+](=O)[O-])cc1)C(Cl)Cl | -10.8%&-0.1% |
| COc1cc(NS(C)(=O)=O)c(OC)cc1NC(=O)c1ccccc1 | -7.1% |
| O=S(=O)(Nc1cc(C(F)(F)F)ccc1N1CCOCC1)c1ccc2ccccc2c1 | -12.7% |
| COc1ccc(N(CC(=O)NCCSC(C)(C)C)S(C)(=O)=O)c(OC)c1 | -1.7% |
| c1ccc(-c2nc(NCCCN3CCOCC3)c3ccccc3n2)cc1 | -5.3% |

(more compounds)
| structure | HPGD block |
| --- | --- |
| O=S(=O)(Cc1ccc(Cl)cc1)c1ccccc1-c1nnc(-c2ccc(Cl)cc2)o1 | ? |
| COc1ccc(S(=O)(=O)N2CCCCC2)cc1C(C)C | -15.1% |
| O=C(CO/N=C/c1ccccc1OC(F)F)NCc1cccs1 | 15.8µM* |
| Cc1nn(C(=O)CNS(=O)(=O)c2ccccc2)c(C)c1Sc1ccc(Cl)cc1 | -7.0% |
| CC(C)CN(C(=O)COC(=O)C1c2ccccc2Oc2ccccc21)C1CCS(=O)(=O)C1 (stereo unspecified) | -15.1% |
| Cc1nc(NC2CCCCC2)c2nc(-c3ccccc3)n(C(C)CN(C)C)c2n1 (stereo unspecified) | -29.2% |
| CC(C)c1ccc(S(=O)(=O)c2nnn3c2nc(N2CCCCC2)c2ccccc23)cc1 | ? |
| COc1cc2c(cc1OC)CN(C(=S)Nc1c(C)cccc1C)CC2 | -4.4% |
| COC(=O)CC1C(=O)NCCN1C(=O)c1ccccc1 (stereo unspecified) | -15.0% |

A portion of the library, so the mix of outcomes need not match the whole.
